MgrA-DNA mod: S. aureus MgrA-DNA binding modulation. fluorescence polarization. inhibition, %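 (about 10 µg/mL by stock and volumes)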. 84,000 compounds, 0.13% hits;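 active = above 50% in either of two replicates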;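 note: 0% = protein plus DNA without compound and 100% = DNA alone without protein; higher means less MgrA bound to DNA so lower polarization; one replicate is shown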
Sa helicase inh: S. aureus DNA helicase inhibition | inhibition, %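 (tested at about 80 µM)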 | AID 485395 | 120,000 compounds, 0.05% hits | purified S. aureus helicase, fluorescence unwinding assay; about half of the hits fall short of the stated cut;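 active = both duplicates at 50% or more, or one of them with a favoured structure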;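 note: 0% = mean of negative control wells and 100% = mean of positive control wells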
An asterisk follows results filed as active; x = no result given.

Below each SMILES: MgrA-DNA mod	Sa helicase inh
1: CCC(C)NC(=S)NC1CCCCC1 (stereo unspecified)
→ 1.1	-11
2: COc1ccc(NC(=O)NC2CC2)c(OC)c1
→ -1.9	11
3: COc1ccc(/C=C2/SC(=S)N(CC(=O)O)C2=O)c(OC)c1OC
→ -0.3	x
4: CC(=O)Nc1cc2cc(NC(=O)c3ccc([N+](=O)[O-])cc3)ccc2oc1=O
→ 3.2	x
5: COc1ccc(N2CCN(CCCNCc3c(C(=O)O)n(C)c4ccccc34)CC2)cc1
→ x	-19
6: COc1cc2c(cc1OC)C(CC(=O)O)NCC2 (stereo unspecified)
→ x	6
7: O=C(CCN1C(=O)c2ccccc2S1(=O)=O)N1CCOCC1
→ x	9
8: O=c1[nH]c2ccccc2nc1-c1cccs1
→ -2.7	x
9: CCOC(=O)c1ccc(CNS(=O)(=O)c2cccc(S(=O)(=O)c3ccc(Cl)cc3)c2)o1
→ x	8
10: CCC1=C(c2ccc(C)cc2)S(=O)(=O)NC1=NCC(=O)O
→ x	-10
11: Oc1ccc(-c2ccc(I)cc2)cc1
→ x	-8
12: CC(=O)OC1=C(C)C(c2ccccc2)N(C(C)=O)C(c2ccccc2)C1C (stereo unspecified)
→ -0.5	5
13: Cc1noc(C)c1Cc1c(Cl)cccc1Cl
→ 2.6	x
14: COC(=O)COc1ccc(S(=O)(=O)N2CCN(c3cc(Cl)ccc3C)CC2)cc1
→ 2.6	10
15: O=C(NCCN1CCOCC1)N(c1ccccc1)c1ccccc1
→ -0.1	2
16: O=C1NN=CC1CCCN=Cc1cc(Cl)cc(Cl)c1O (stereo unspecified)
→ 2.4	x
17: COc1ccc(C2CC(=O)C3=C(C2)NC(C)=C(C(=O)OC(C)C)C3c2ccc(OC)cc2OC)cc1 (stereo unspecified)
→ -0.4	x
18: COc1ccc(C(=O)Nc2cccc3ncccc23)cc1OC
→ x	-9
19: O=C(CSC1=NCCS1)Nc1nc(-c2ccc(Cl)cc2)cs1
→ -3.6	5
20: CC1=NN(C(=O)c2cccnc2)C(O)(c2ccccc2)C1 (stereo unspecified)
→ 1.3	-1
21: O=C1NC(=O)C2(CCc3ccccc32)N1 (stereo unspecified)
→ x	3
22: CCc1nnc(SCCSc2nnc(CC)n2N)n1N
→ 0.3	-10
23: CN(C)c1cc(-c2ccccc2)nc(-c2ccccc2)n1
→ 2.3	8
24: CSc1nc(CSc2ccc(C)cc2)nc(N)c1C#N
→ x	-16
25: CSC1=NC=C(C#N)C2=NC(C)(c3ccc(Cl)c(Cl)c3)NN12 (stereo unspecified)
→ x	11
26: CN1CCC(=NNC(=O)c2ccc(CN3C(=O)c4cccc5cccc3c45)cc2)CC1
→ x	-8
27: CC[N+]1(Cc2ccccc2)C2=C(CN(C)CC2)c2ccccc21 (stereo unspecified)
→ -0.6	16
28: CC1CCCN(CCCNS(=O)(=O)c2csc(C(N)=O)c2)C1 (stereo unspecified)
→ x	17
29: Cc1cc(C)c(NC(=O)C(C)(C)C)c(C)c1
→ -2.1	x
30: COc1ccc(NC(CC(=O)C2CC2)c2ccccc2)cc1 (stereo unspecified)
→ -0.5	x

Other results follow.
Below each SMILES: MgrA-DNA mod	Sa helicase inh
31: O=C(CSc1ccccn1)NC12CC3CC(CC(C3)C1)C2
→ -0.1	10
32: CSC1=NC2(CCCCCC2)Cc2ccccc21
→ -1.5	-4
33: Cc1nnc(NCc2ccccc2)n(N)c1=O
→ 0.0	17
34: CCN(CC)S(=O)(=O)c1ccc2c(c1)oc(=O)c1cc(S(=O)(=O)N(CC)CC)ccc12
→ x	12
35: CCN1C(=O)c2ccc(C(=O)Nc3ccc(OC)cc3)cc2C1=O
→ 4.5	-23
36: CC(C)c1cccc(C(C)C)c1NC(=O)CCCN1C(=O)NC2(CCCC2)C1=O
→ x	-5
37: Cc1ccc2nc(-c3ccccc3F)oc(=O)c2c1
→ -1.6	x
38: Cc1ccccc1Nc1nc(N)nc(COC(=O)CC2Sc3ccccc3NC2=O)n1 (stereo unspecified)
→ x	-7
39: CCOC(=O)c1cnc(SC2CC(=O)N(c3ccccc3)C2=O)nc1N (stereo unspecified)
→ 3.5	16
40: Cn1ccnc1SCC(=O)N1c2ccccc2C(C)(c2ccc(Cl)cc2)CC1(C)C (stereo unspecified)
→ 1.5	6
41: OC(CN1CCN(c2ccccc2F)CC1)c1ccc2[nH]ccc2c1 (stereo unspecified)
→ x	6
42: CC(=NCCc1c(C)[nH]c2ccc(OC(F)(F)F)cc12)C1=C(O)CC(c2ccccc2)CC1=O (stereo unspecified)
→ -0.9	-3
43: COCCN1C(=O)c2ccccc2C(C(=O)NCCCN2CCCC2)C1c1ccc(F)cc1 (stereo unspecified)
→ x	10
44: Cc1cc(NC(=O)c2ccccc2)n(C(C)(C)C)n1
→ -0.9	x
45: CC(=O)c1cc(-c2ccccc2)c(C(F)(F)F)s1
→ -2.8	x
46: CCCSc1nc2ccccc2[nH]1
→ x	10
47: O=C(OCCOCCO)c1ccccc1Nc1cccc(C(F)(F)F)c1
→ 2.0	x
48: O=C(NCc1ccco1)c1ccc2c(c1)C(=O)N(Cc1ccccc1)C2=O
→ 0.2	8
49: CC(C)c1ccc(-n2c(CCC(=O)O)ccc2-c2cccs2)cc1
→ x	-1
50: Cc1ccc(/C=N/NC(=O)CSc2nc3ccccc3n2Cc2ccccc2)o1
→ x	10
51: Cc1cc(NS(=O)(=O)c2ccc(N3C(=O)c4ccccc4C3=O)cc2)no1
→ x	-8
52: COC(=O)C1=C(C)NC(SCC(=O)C23CC4CC(CC(C4)C2)C3)=C(C#N)C1c1cccs1 (stereo unspecified)
→ -1.5	0
53: Cc1noc(C)c1Cn1nc(C(=O)O)c2ccccc2c1=O
→ x	1
54: C/C(Cn1cc[n+](C)c1)=N/O
→ x	-8
55: O=C(CSc1ccccc1)Nc1ccc(F)cc1
→ -2.3	-3
56: CCC(=O)N(c1nnc(SCCN2C(=O)c3ccccc3S2(=O)=O)s1)C1CC1
→ x	-5
57: CCCN(CCC)C(=O)Cn1ncc2c(=O)oc3ccc(C)cc3c21
→ -1.1	11
58: O=C(CN1C(=O)COc2ccccc21)N(Cc1nc2ccccc2c(=O)[nH]1)CC1CCCO1 (stereo unspecified)
→ x	-1
59: O=C(NCC1CC1)c1cc2ccccc2oc1=O
→ -1.2	x
60: S=C(c1ccncc1)N1CCOCC1
→ -7.6	3

Other entries follow.
Below each SMILES: MgrA-DNA mod	Sa helicase inh
61: CCOC(=O)C1=C(C)N=c2s/c(=C\c3ccc(O)c(Br)c3)c(=O)n2C1c1ccc(OC)c(OC)c1 (stereo unspecified)
→ -2.9	x
62: COc1cccc2c1CCN(C)C2=O
→ x	16
63: Cc1ccc(C2=NNC(C(O)C(O)C(O)C(O)CO)S2)cc1 (stereo unspecified)
→ 1.7	4
64: CCC(=O)N/C(N)=N\c1nc(C)c2ccccc2n1
→ 0.1	11
65: CS(=O)(=O)c1ccc(-c2cccc(NC(=O)Cc3cccs3)c2)nn1
→ x	-17
66: COC(=O)CSc1nc2ccc(C)cc2[nH]1
→ x	-5
67: NCc1n[nH]c(=S)n1CCc1ccccc1
→ x	1
68: Cc1noc(C)c1S(=O)(=O)Nc1ccc(C(=O)N2CCc3ccccc3C2)cc1
→ x	9
69: Cc1oc(NC(=O)C(F)(F)F)c(C#N)c1C
→ -3.0	16
70: N#C/C(C(=O)N1CCCCC1)=C(/S)Nc1ccccc1
→ 2.1	0
71: Cc1nc2cc(CC(=O)O)ccc2o1
→ -5.0	x
72: COc1ccccc1N1CCN(CCC(=O)O)CC1
→ 1.1	4
73: Cc1ccc(/C=C/C(=O)NCC2CCN(C(=O)/C=C/c3ccc(C)o3)CC2)o1
→ 0.6	1
74: CC1(C)CC(=O)C2=C(C1)NC(=O)C21C(C#N)=C(N)Oc2ccccc21 (stereo unspecified)
→ 3.3	6
75: COc1ccc(Cl)cc1N(C(C)C(=O)O)S(C)(=O)=O (stereo unspecified)
→ 0.8	4
76: NC(=O)C1=C(N)SC2C(=O)N(c3ccc4ccccc4c3)C(=O)C2C1c1ccccc1O (stereo unspecified)
→ x	-1
77: Cc1cc(=O)oc2cc(OCC(O)Cn3cnc4ccccc43)ccc12 (stereo unspecified)
→ -4.9	2
78: COc1cc(C(=O)NNC(=O)c2sc3ccccc3c2Cl)cc(OC)c1OC
→ 2.0	x
79: CC(=O)Nc1ccc(-c2cn3ccsc3n2)cc1
→ x	4
80: COc1cc(Cl)cc(OC)c1NC(=S)N1CCN2C(=O)c3ccccc3C21c1ccccc1 (stereo unspecified)
→ 0.4	x
81: N#C/C(=C\c1ccco1)C(N)=S
→ x	8
82: COc1ccc(OC)c(NC(=O)CS)c1
→ 5.6	13
83: COc1cc(/C=N/OCC(=O)NCC2CCCO2)ccc1OC(F)F (stereo unspecified)
→ x	9
84: COc1ccc(CC(=O)NCc2ccccc2)cc1
→ -1.3	x
85: CCOc1ccc2c(O)c(C3=Nc4ccccc4C3=O)sc2c1
→ 1.6	-14
86: CC(=O)NCc1nc2ccccc2n1C(C)C
→ x	-7
87: Fc1ccccc1-c1csc(-n2nccc2C(F)(F)F)n1
→ x	-3
88: Cc1ccc(SCC(=O)O)cc1
→ -10	8
89: CC(C)(C)OC(=O)NC(CC(N)=O)C(=O)Oc1ccc([N+](=O)[O-])cc1 (stereo unspecified)
→ 2.7	x
90: NC1=Nc2ccc(Cl)cc2C1(O)c1ccccc1 (stereo unspecified)
→ -2.1	x

Remaining list, next part.
# | compound | MgrA-DNA mod | Sa helicase inh
91 | COC(=O)Nc1cn(Cc2ccccn2)c(=O)c2ccccc12 | 1.7 | x
92 | CSc1cccc(NC(=O)N2CCN3CCCCC3C2)c1 (stereo unspecified) | x | -20
93 | COc1ccc(CN2C(=O)N(Cc3cc(=O)n4ccccc4n3)c3ccccc3S2(=O)=O)cc1 | x | -1
94 | Fc1cccc(Cl)c1CSc1ccc(C(F)(F)F)cn1 | 1.7 | x
95 | Nc1nc(SCCO)[nH]c(=O)c1NC(=O)c1ccccc1F | x | 10
96 | O=C(O)C1C2C=CC(O2)C1C(=O)NCCCn1ccnc1 (stereo unspecified) | x | -3
97 | O=C1CCCc2cc(S(=O)(=O)N3CCCc4ccccc43)ccc2N1 | x | 22
98 | O=C(O)c1[nH]n(-c2ccccc2)c(=O)c1/C=C1\C=Nc2ccccc21 | 1.8 | 9
99 | Cn1c2ccccc2c2cc(C#N)c3nc(=O)c4ccccc4n3c21 | x | -114
100 | COc1cc2c(cc1OC)C(=O)CC(C)(C)O2 | 0.2 | x
101 | O=C(NCC1COc2ccccc2O1)Nc1csc2ccccc12 (stereo unspecified) | -1.1 | x
102 | C=CCn1c(COc2ccc(CC)cc2)nnc1SCn1nnc2ccccc2c1=O | x | 3
103 | Nc1ccc2c(c1)C/C(=C\c1ccco1)C2=O | x | -149
104 | O=C(Cc1nc(-c2cnccn2)no1)N/N=C/c1ccccc1 | x | -11
105 | FC(F)(F)c1ccc(-c2csnn2)cc1 | -0.5 | x
106 | O=C1c2ccccc2C(=O)N1CN(CN1C(=O)c2ccccc2C1=O)C1CC1 | -0.4 | -3
107 | CCCCOc1ccc(CSC(=N)N)cc1 | x | -8
108 | CCCCOc1ccc(C(=O)Nc2cc(C)ccn2)cc1 | x | -21
109 | CCN(CC)S(=O)(=O)c1ccc2oc(C(=O)NCCN3CCOCC3)c(C)c2c1 | x | 19
110 | COc1cccc(/C=N/c2nc3ccccc3n2C)c1O | 3.1 | 0
111 | O=C(Nc1c2c(nn1-c1ccc(Cl)cc1)CSC2)c1ccc(S(=O)(=O)N2CCCC2)cc1 | 1.1 | x
112 | COc1ccc(/C(O)=C2/C(=O)C(=O)N(CCCO)C2c2cccc(Br)c2)cc1F (stereo unspecified) | x | 3
113 | Cc1cc(C)cc(N2Cc3ccccc3C2)c1 | -0.6 | x
114 | Cc1ccc(C)c(N2N=C(C(=O)OCN3C(=O)c4ccccc4C3=O)CCC2=O)c1 | x | 8
115 | CN(C(=O)CCc1nc(CN2CCN(S(=O)(=O)c3cccs3)CC2)no1)C1CCCCC1 | x | -28

The list goes on.
# | compound | MgrA-DNA mod | Sa helicase inh
116 | COc1ccc(NC(=O)Nc2ccc(OC)c(OC)c2)cc1OC | -0.4 | 8
117 | COC(=O)c1cc(S(=O)(=O)N(C)C2CCCCC2)oc1C | -1.8 | x
118 | O=C(CN1C(=O)CCCc2ccccc21)N1CCCCC1 | x | 11
119 | NS(=O)(=O)c1ccc2nc(NC(=O)c3ccc(Br)s3)sc2c1 | x | -1
120 | Nc1cnn(C2CCCCC2)c(=O)c1Cl | 0.4 | 9
121 | Nc1ccc(-n2ccnc2)cc1 | -0.9 | x
122 | O=C(O)C1CC=CCC1C(=O)NCCc1ccccc1 (stereo unspecified) | -4.0 | 0
123 | NNC(=O)C(Oc1ccccc1)Oc1ccccc1 | -2.6 | 6
124 | O=C(COc1ccc2c(c1)C(=O)CC1(CCCCC1)O2)NCc1ccccc1 | x | 3
125 | O=C(c1ccccc1)C1(c2ccccc2)OCCCCO1 | 2.3 | 3
126 | CCOC(=O)N1CCN(CC2CCCCC2)CC1 | -0.1 | 18
127 | FC(F)(F)c1ccc(NC(=S)NC2CC2)cc1 | x | 5
128 | O=C(NCCCN1CCCCCC1)C1C2C=CC3(CN(Cc4cccs4)C(=O)C13)O2 (stereo unspecified) | x | -5
129 | O=C(Cc1ccccc1)Nc1ccc2c(c1)C(=O)OC2 | -4.7 | 8
130 | O=S(=O)(c1ccc(=S)[nH]c1)N1CCCCCC1 | x | 3
131 | COC(CN=C(NC#N)SC)OC | -2.5 | x
132 | O=C(CCC1CCCC1)Nc1ccc(-c2cn3cccnc3n2)cc1 | x | 9
133 | Cc1cccc(C)c1N1C(=O)CSCC1=O | x | -15
134 | CN1C(=O)SC(Nc2ccccc2)C1=O (stereo unspecified) | 4.4 | -6

Screens deposited in PubChem BioAssay by ICCB-Longwood Screening Facility, Harvard Medical School.

These rows are one share of the data. The share of hits here may be higher or lower than overall.
